Vaccinia Venus – qHTS for Stage-Specific Inhibitors of Vaccinia Orthopoxvirus: Venus Reporter Primary qHTS. Vaccinia virus Venus reporter expression, fluorescence. Potency, µM (highest dose often 36.5 µM), for the others: at the top dose activity change, negative = inhibition, usual class: inhibitors. hit rate 0.46% among 330,000. AID 720580, 2013; active means well fitted inhibition curve with a large enough effect; inconclusive means small, poorly fitted or top-dose-only effect; inactive means no such curve, though single readings can be large or run the other way; tested in A549 cells; note: nearly all actives have a fitted effect of over 30% in size; inactives centre near -10
Vaccinia mCherry – qHTS for Stage-Specific Inhibitors of Vaccinia Orthopoxvirus: mCherry Reporter Primary qHTS; Vaccinia virus mCherry reporter infection, fluorescence; about a quarter of the inactives have no number; Potency, µM (titrated, usually from 36.5 µM), without a hit: top-dose activity change, negative = inhibition, actives largely listed as inhibitors; hit rate 0.63% among 310,000; active = well fitted inhibition curve with a large enough effect; inconclusive = small, poorly fitted or top-dose-only effect; inactive = no such curve, though single readings can be large or run the other way; tested in A549 cells; note: nearly all actives have a fitted effect of over 35% in size; inactives centre near -10
* = called active by the depositor; i = inactive; ? = inconclusive; . = no result given; & = joins results of further samples; ! = repeats disagree. % is set by controls: 0 for no effect and ±100 for the full control effect; potency is the fitted concentration of half-maximal effect. Not a hit list. Share with any hit: about 0.87%.

The opening 2 entries as a preview:
SMILES	Vaccinia Venus	Vaccinia mCherry
Cc1c(C(=O)N/N=C/c2ccc(-c3ccccc3[N+](=O)[O-])o2)sc(N)c1C#N	-18%	-11%
O=C(Nc1ccccc1N1CCCC1)c1ccc(F)c(S(=O)(=O)N2CCOCC2)c1	-7%	0%

Main list, previewed entries included:
SMILES	Vaccinia Venus	Vaccinia mCherry
Cc1c(C(=O)N/N=C/c2ccc(-c3ccccc3[N+](=O)[O-])o2)sc(N)c1C#N	-18%	-11%
O=C(Nc1ccccc1N1CCCC1)c1ccc(F)c(S(=O)(=O)N2CCOCC2)c1	-7%	0%
CCOC(=O)c1ccc(CNC(=O)C(Cc2c[nH]c3ccccc23)NC(C)=O)o1 (centres undefined)	-12%	i
CCc1ccc(-n2c(=O)c3c4c(sc3n(Cc3ccccc3C#N)c2=O)CCCC4)cc1	-10%	-5%
Cc1cccc(-c2sc(Nc3ccccc3)n[n+]2-c2ccccc2)c1	-11%	i
CN1C(=O)Cc2cc(S(=O)(=O)CCC(=O)Nc3ccccc3)ccc21	8%	-4%
CCOC(=O)c1c(NC(=O)Nc2ccc(F)cc2)sc2c1CCN(C)C2	-9%	-1%
CC(C)(C)OC(=O)N[C@@H](Cc1ccccc1)C(=O)N[C@@H](CO)[C@H](O)[C@@H]1C[C@@H]1C(=O)NC1CC1	-6%	i
O=C(NCc1ccco1)C(c1ccc(F)cc1)N(Cc1cccnc1)C(=O)Cn1nnc2ccccc21 (centres undefined)	-4%	.
COCCNC(=O)C1(C)CCN(C(=O)c2nc(C)oc2C)C1 (centres undefined)	8%	i
Cc1ccc(-n2nc3c(=O)n(CC(=O)c4ccc(F)cc4)nc(C)c3c2C)cc1	-25%	-8%
CCOC(=O)N1CCN(C(=O)C2CCN(S(=O)(=O)c3ccc(OCC)cc3)CC2)CC1	-8%	-20%
COc1ccc(N2CCN(C(=O)C3CC(O)CN3S(=O)(=O)c3ccc([N+](=O)[O-])cc3)CC2)cc1 (centres undefined)	-13%	-12%
Cc1ccc(C)c(OCCC(=O)OCC(=O)Nc2ccc(C)c(S(=O)(=O)N3CCCCC3)c2)c1	-13%	-16%
CC(C)(C)c1ccc(C(=O)NNC(=S)NCC2CCCO2)cc1 (centres undefined)	-4%	i
CCC(C)c1ccccc1N1CC(C(=O)NCCC2=CCCCC2)CC1=O (centres undefined)	-5%	-14%
COc1ccc(NC(=O)c2nc[nH]c2C(=O)N[C@H](C)c2ccccc2)cc1	?	-21%
O=C(O)C1C2C=CC(C2)C1C(=O)NCc1ccoc1 (centres undefined)	-18%	5%
Cc1cc(Br)ccc1Nc1nc(N)nc(N)c1N=O	-6%	?
COc1ccc(NC(=O)c2oc3ccccc3c2NC(=O)C2CC2)cc1OC	-13%	-14%
COC(=O)COc1cccc2c(=O)n(CC(=O)N3CCCc4ccccc43)ccc12	-1%	i
COc1ccc(C2CC(=O)N(CC(=O)Nc3cc(C)ccc3C)c3ccccc3S2)cc1 (centres undefined)	7%	-4%
CCOc1ccc(N(CC(=O)NC2CCCCC2)C(=O)CNC(=O)c2cccs2)cc1	2%	-8%
COc1ccc(OC)c(S(=O)(=O)NCCc2sc(C)nc2C)c1	13%	7%
CN1C(CCl)Nc2cc(Cl)c(S(N)(=O)=O)cc2S1(=O)=O (centres undefined)	-14%	-6%

The closing seven records of the section above open the next one.
SMILES	Vaccinia Venus	Vaccinia mCherry
Cc1cc(Br)ccc1Nc1nc(N)nc(N)c1N=O	-6%	?
COc1ccc(NC(=O)c2oc3ccccc3c2NC(=O)C2CC2)cc1OC	-13%	-14%
COC(=O)COc1cccc2c(=O)n(CC(=O)N3CCCc4ccccc43)ccc12	-1%	i
COc1ccc(C2CC(=O)N(CC(=O)Nc3cc(C)ccc3C)c3ccccc3S2)cc1 (centres undefined)	7%	-4%
CCOc1ccc(N(CC(=O)NC2CCCCC2)C(=O)CNC(=O)c2cccs2)cc1	2%	-8%
COc1ccc(OC)c(S(=O)(=O)NCCc2sc(C)nc2C)c1	13%	7%
CN1C(CCl)Nc2cc(Cl)c(S(N)(=O)=O)cc2S1(=O)=O (centres undefined)	-14%	-6%
CC(=O)Cc1nsc(NC(=O)C2Cc3ccccc3C(=O)O2)n1 (centres undefined)	-1%	i
Cc1ccc(NC(=O)CCN2CC(C)OC(C)C2)cc1 (centres undefined)	-5%	-10%
Cc1ccccc1Cn1c(Oc2ccccc2F)nc2c1c(=O)n(C)c(=O)n2C	-9%	-10%
COc1ccc(C)cc1N(CC(=O)N1CCCCCC1)S(=O)(=O)c1ccc(C)cc1	-16%	-16%
O=C(COc1ccccc1-c1ccccc1)N/N=C/c1ccccn1	?	?
CCCCN(C(=O)COC(=O)c1ccc(C=O)cc1)c1c(N)n(CCC)c(=O)[nH]c1=O	-11%	-3%
O=S(=O)(N/N=C/c1ccc(N2CCOCC2)cc1)c1ccccc1	-4%	-2%
COC(CNC(=O)CNC(=S)N(CCCN1CCOCC1)Cc1cccs1)OC	-20%	-10%
CC(=O)OC1CC2C(C)(C)C(O)CC(O)[C@@]2(C)C2CC[C@@]3(C)C(=CC(=O)OC3c3ccoc3)[C@]12C (some centres undefined)	-22%	-28%
CCCC1=Nc2cc(C(=O)NCC(C)c3ccccc3)ccc2Sc2ccccc21 (centres undefined)	?	?
Cc1ccccc1NC(=O)NC1(C(=O)NCCCN2CCOCC2)CCCCC1	-18%	-10%
CCN(CCn1cccn1)C(=O)CC1C(=O)NCCN1Cc1cccc(OC)c1OC (centres undefined)	3%	i
CCOC(=O)/C(C#N)=C/c1cn(CCOc2ccccc2)c2ccccc12	-4%	-8%
COc1cc(NC(=O)c2ccc(Br)o2)ccc1NC(=O)C(C)C	-2%	.
O=C(C1CCCN(S(=O)(=O)c2ccccc2)C1)N1CCN(c2ccccc2)CC1 (centres undefined)	-24%	-8%
OC[C@@H]1CN(Cc2ccc(-c3ccccc3)cc2)C[C@H](n2cnc3c(NCc4ccc(F)cc4)ncnc32)O1	?	-18%
CC(C)C(=O)N1CCN(c2ccc(NC(=O)c3ccc([N+](=O)[O-])o3)cc2)CC1	11µM*	10µM*
COc1ccc(CCN2C(=O)c3cccc4cccc(c34)C2=O)cc1OC	-5%	-9%
COc1c2occc2c(OC)c2c(=O)cc(C(F)(F)F)oc12	3%	.
Cc1n[nH]c(C)c1CCN	7%	.
CN(C(=O)COC(=O)CN1C(=O)C2CC=CCC2C1=O)c1ccccc1 (centres undefined)	-11%	-13%
CCOP(=O)(OCC)C(CC)N1CCOCC1 (centres undefined)	3%	.
CCN(CC)C(=O)[C@H]1C[C@H](CC(=O)NCCCn2ccnc2)C(=O)N2CCc3c([nH]c4cc(-c5ccco5)ccc34)[C@]12C	-19%	-15%
COc1ccc(Cn2nnc3c(=O)[nH]c(C(=O)NCCc4ccc(F)cc4)nc32)cc1OC	-5%	14%
Cc1ccccc1-c1nc(SCc2cccnc2)c2c(=O)n(C)c(=O)n(C)c2n1	-11%	-9%

Record cards (already shown):
Listed for CN(C(=O)COC(=O)CN1C(=O)C2CC=CCC2C1=O)c1ccccc1 (centres undefined) : Vaccinia Venus: -11%; Vaccinia mCherry: -13%
Listed for CCN(CC)C(=O)[C@H]1C[C@H](CC(=O)NCCCn2ccnc2)C(=O)N2CCc3c([nH]c4cc(-c5ccco5)ccc34)[C@]12C : Vaccinia Venus: -19%; Vaccinia mCherry: -15%

Next section
SMILES	Vaccinia Venus	Vaccinia mCherry
Cc1ccc(-n2c(SCC(=O)Nc3cc(C)on3)nc3ccccc3c2=O)cc1	-14%	-11%
O=C(O)c1ccccc1C(=O)N1CCN(c2ncccn2)CC1	-10%	i
O=c1c(-c2ccc(O)cc2)coc2cc(O)ccc12	0.63µM*!	?
S=C(NCCc1ccccc1)N1CCOCC1	-12%	-11%
CCCCCCCCN1C(=O)[C@H](CC(=O)NCCCOCCCC)C[C@@]2(C(=O)OC)CC(C)(C)CC=C12	-11%	-16%
CON(C)S(=O)(=O)c1cccc(C(=O)Oc2ccc(N(C)S(=O)(=O)c3ccccc3)cc2)c1	-6%	-1%
Clc1ccc(-c2cn3c(n2)SCC3)cc1	-19%	-28%
COc1cc2c(cc1OC)CN(C(=O)COc1ccccc1C#N)CC2	1%	i
COC(=O)/C=C\C(=O)Nc1cccc([N+](=O)[O-])c1	-10%	-11%
O=C(C1CC(=O)N(C2CCCC2)C1)N1CCC(Cc2ccccc2)CC1 (centres undefined)	-21%	-23%
CCCCc1c(-c2cccc(Cl)c2)ncn1CCc1ccccc1OC	-14%	-14%
COc1ccc(C2Nc3ccccc3NC3=C2C(=O)CC(C)(C)C3)c(OC)c1OC (centres undefined)	-23%	-1%
O=C1CC(c2ccc(F)cc2)SC(N(c2ccccc2)c2ccccc2)=N1 (centres undefined)	-22%	-29%
COc1ccc(-c2csc(NC(=O)CSCC(=O)Nc3cc(C)on3)n2)cc1	-10%	-14%
CCOC(=O)[C@H]1[C@H]2COc3ccc(Cl)cc3[C@@H]2N2C(=O)c3cc(F)c(F)cc3NC(=O)[C@@]12C	?	-2%
CC(=O)N1CCCC1c1nc2ccccc2n1Cc1ccccc1Cl (centres undefined)	-8%	-5%
Oc1c(C=C2N=c3ccccc3=N2)sc(=S)n1-c1ccc(F)cc1	10%&-19%	?
N#Cc1c(Sc2ncc(C(F)(F)F)cc2Cl)nsc1C/C=N\OCc1c(F)cccc1Cl	-4%	.
Cc1oc(C(=O)O)cc1COc1ccccc1Cl	-8%	4%
COc1ccc(NC(=O)CC2C(=O)N(c3ccc(OC)cc3)C(=O)N2CCc2cccs2)cc1 (centres undefined)	-13%	-1%
O=C(Sc1ccc(Cl)cc1)c1ccccn1	7%	-15%
COc1ccc(CCN2CN(S(=O)(=O)c3ccccc3)c3nc4ccccc4nc32)cc1OC	-13%	-2%
CCOC(=O)CCC(NC(=O)c1ccc(NCN2C(=O)c3ccccc3C2=O)cc1)C(=O)OCC (centres undefined)	-20%	.
CCOC(=O)c1c(C)oc2nc(C)nc(N3CCN(c4cccc(C)c4C)CC3)c12	-3%	-10%
Cc1cc(N2C(=O)C3C4CCC(C4)C3C2=O)no1 (centres undefined)	-10%	i

Three entries from above in a different format.
| molecule | Vaccinia Venus | Vaccinia mCherry |
| --- | --- | --- |
| Cc1ccc(-n2c(SCC(=O)Nc3cc(C)on3)nc3ccccc3c2=O)cc1 | -14% | -11% |
| O=C(O)c1ccccc1C(=O)N1CCN(c2ncccn2)CC1 | -10% | i |
| CON(C)S(=O)(=O)c1cccc(C(=O)Oc2ccc(N(C)S(=O)(=O)c3ccccc3)cc2)c1 | -6% | -1% |

Carrying on.
SMILES	Vaccinia Venus	Vaccinia mCherry
O=C(NCCc1ccc(Cl)cc1)c1ncn[nH]1	-15%	-15%
CCS(=O)(=O)N1Cc2ccccc2CC1C(=O)Nc1nnc(SCc2ccc(C#N)cc2)s1 (centres undefined)	-20%	-2%
COC(=O)COc1cccc2c(=O)n(CC(=O)NCc3ccccc3)ccc12	-19%	-15%
Cc1ccccc1Nc1c(-c2ccc(N3CCOCC3)cc2)nc2cnccn12	9%	?
C=CCN1C(=O)NC2(CCCCC2)C1=O	-2%	-14%
NS(=O)(=O)c1ccc(NC(=O)CSC2CCCCC2)cc1	-11%	-16%
CCC(C)NC(=O)N[C@@H](CCSC)C(=O)OC (some centres undefined)	-8%	i
CCC1CCCCN1CCCNC(=O)c1cc2c(Cl)nc3ccc(C)cc3c2s1 (centres undefined)	?	-28%
Cc1ccc(F)c(S(=O)(=O)NC(=O)C2(C)CCN2C(=O)Cc2ccc(C(C)(C)C)cc2)c1 (centres undefined)	4%	10%
Cc1cc(-c2ccccc2)nc(Oc2ccc(C(C)(C)C)cc2)c1S(C)(=O)=O	-27%	.
O=C(NCc1ccccc1Cl)C1CCN(S(=O)(=O)c2cccc3nonc23)CC1	-13%	-12%
COc1ccc(C(C)=O)cc1COC(=O)c1ccc2ccccc2n1	6%	-21%
CC(C)OC(=O)c1ccccc1C(=O)c1ccc(N)c([N+](=O)[O-])c1	-8%	-7%

Assay outcomes as filed in PubChem.
